# Bioassay records deposited in PubChem by National Center for Advancing Translational Sciences (NCATS).
# Vaccinia mCherry: qHTS for Stage-Specific Inhibitors of Vaccinia Orthopoxvirus: mCherry Reporter Primary qHTS | Vaccinia virus mCherry reporter infection, fluorescence; about a quarter of the inactives have no number | Potency, µM (top dose mostly 36.5 µM), without a hit: top-dose activity change, negative = inhibition, most hits filed as inhibitors | actives 0.63% (n = 310,000) | AID 720579, 2013; active = well fitted inhibition curve with a large enough effect; inconclusive = small, poorly fitted or top-dose-only effect; inactive = no such curve, though single readings can be large or run the other way; tested in A549 cells; further: nearly all actives have a fitted effect of over 35% in size; inactives centre near -10
# VACV Venus inh: qHTS for Stage-Specific Inhibitors of Vaccinia Orthopoxvirus: Venus Reporter Primary qHTS; Vaccinia virus Venus reporter expression, fluorescence; Potency, µM (series often up to 36.5 µM), inactives show at the top dose activity change, negative = inhibition, most hits filed as inhibitors; actives 0.46% (n = 330,000); AID 720580, 2013; active means well fitted inhibition curve with a large enough effect; inconclusive means small, poorly fitted or top-dose-only effect; inactive means no such curve, though single readings can be large or run the other way; tested in A549 cells; further: nearly all actives have a fitted effect of over 30% in size; inactives centre near -10
# Active calls of the source: *; i = inactive; ? = inconclusive; nt = not tested or not shown; & = joins results of further samples; [ ] = another dose, or the depositor's remark. On the % scale 0 is the no-effect control and ±100 the full control effect; potency means the concentration at half of the fitted maximal effect. The order is random (roughly 0.82% active in at least one column).
canonical_smiles | Vaccinia mCherry | VACV Venus inh
COc1ccc(CC(=O)NNC(=O)CSc2nc(C)c(C)c(=O)[nH]2)cc1 | -23% | -4%
COCCn1cc(C(=O)c2cc(Br)ccc2O)cc(C#N)c1=O | -8% | 27%
COc1cc(OC)c(N(C)C(=O)C2CCCN(c3ncnc4c3nc3n4CCCCC3)C2)cc1Cl (stereo not given) | -11% | -3%
CCOC(=O)C1(CC2CCCCO2)CCN(S(=O)(=O)c2cccc(F)c2)CC1 (stereo not given) | i | 4%
CCC(=O)NC(c1ccc(C)cc1)c1ccc2cccnc2c1O (stereo not given) | ? | ?
Nc1nc(-c2ccccn2)nc(N)c1Cc1ccccc1F | -16% | -12%
Cc1ccc(C)c(Cn2c3ccccc3c3cnn(CC(=O)NC4CCC(C)CC4)c(=O)c32)c1 (stereo not given) | -11% | -4%
CCN(c1cccc(C)c1)S(=O)(=O)c1cc2c(cc1C)n(C)c(=O)c(=O)n2C | -16% | -4%
Nc1c(C(=O)NCCN2CCOCC2)c2nc3ccccc3nc2n1Cc1ccccc1 | i | -8%
NS(=O)(=O)c1cccc(NC(=O)COC(=O)CN2C(=O)C3CC=CCC3C2=O)c1 (stereo not given) | i | -12%
Cc1cc(=O)oc2c(C)c(OC(C)C(=O)NCCN3CCOCC3)ccc12 (stereo not given) | -22% | -9%
COc1ccc(-n2c(SCC(N)=O)nc3sc4c(c3c2=O)CCC4)cc1 | -6% | 0%
COCC(=O)N1CCC(n2nccc2NC(=O)c2ccccc2OC)CC1 | i | -11%
Cc1cnc(C(=O)NCCc2ccc(C(F)(F)F)cc2)cn1 | -15% | -7%
Cc1ccc(O)c(C(=O)c2cnc3onc(-c4ccc(F)cc4)c3c2)c1 | -20% | -16%
COc1ccc(NS(=O)(=O)c2cc(NC(=O)c3cnccn3)ccc2OC)cc1Br | -6% | -27%

# 2 of these compounds in another layout.
Molecule: NS(=O)(=O)c1cccc(NC(=O)COC(=O)CN2C(=O)C3CC=CCC3C2=O)c1 (stereo not given)
- Vaccinia mCherry = i
- VACV Venus inh = -12%

Molecule: Cc1cc(=O)oc2c(C)c(OC(C)C(=O)NCCN3CCOCC3)ccc12 (stereo not given)
- Vaccinia mCherry = -22%
- VACV Venus inh = -9%

# Later entries
canonical_smiles | Vaccinia mCherry | VACV Venus inh
O=C(NC(NC1CCS(=O)(=O)C1)C(=O)c1cccs1)c1ccccc1 (stereo not given) | nt | -17%
O=C(c1ccc(S(=O)(=O)Cc2cc(F)ccc2F)c([N+](=O)[O-])c1)N1CCCC1 | -26% | -9%
CCOC(=O)/C(C#N)=C(\N)C(C)C(=O)Nc1ccccn1 (stereo not given) | nt | -6%
CCOc1ccc(-n2c(=O)cc(N3CCN(c4ccc(F)cc4)CC3)[nH]c2=O)cc1 | -10% | -16%
O=S(=O)(NCC1CCCO1)c1ccc(NS(=O)(=O)c2ccc(F)cc2)cc1 (stereo not given) | i | -7%
Cc1ccc2nc(-c3ccccc3O)c(Nc3ccc4c(c3)OCCO4)n2c1 | -10% | -17%
CCC(=O)N1CCc2cc(Br)cc(S(=O)(=O)NCc3ccccc3)c21 | -4% | -5%
CC(=O)c1cccc(NC(=O)c2cc(-c3ccc(C)cc3)on2)c1 | i | -6%
Cc1ccccc1Cn1c(=O)n(CC2CCC(C(=O)NCCc3ccccc3)CC2)c(=O)c2ccccc21 (stereo not given) | -14% | -7%
O=C(COC(=O)Cc1ccccc1)NCc1ccc2c(c1)OCO2 | i | -10%
CCCNC(=O)c1cc(-c2ccc(OC)cc2)n(CCCOC)c1C | -28% | -15%
COc1cc2c(cc1OC)-c1nnc(-c3ccco3)n1C1(CCCC1)C2 | nt | -25%
COc1cccc(C(=O)NCCCN2CCN(CCCNC(=O)c3cccc(OC)c3)CC2)c1 | -14% | -15%
Nc1nnc(SCC(=O)Nc2sc3c(c2C(=O)c2ccccc2)CCCC3)s1 | -26% | -14%
C[C@H](CO)N1C[C@H](C)[C@H](CN(C)Cc2ccc(-c3ccccc3)cc2)Oc2ccc(NS(=O)(=O)c3ccccc3)cc2CC1=O | ? | 10µM*
Cc1ccc(S(=O)(=O)N2CC3CCC2C3)cc1 (stereo not given) | nt | -5%
Cc1ccccc1OCCn1c(CCNC(=O)C2CCCCC2)nc2ccccc21 | -7% | -21%
CC[C@@H]1Cc2cc(O)ccc2C2=C1c1ccc(O)cc1C[C@H]2CC | -22% | ?
CCc1ccc(OCc2cc(=O)n3cc(C)sc3n2)cc1 | -6% | -5%
COc1cccc(SCc2noc(C(=O)NCCC(C)C)c2C(=O)NCCC(C)C)c1 | i | -13%
CCCNc1c(NS(=O)(=O)c2ccc3c(c2)CCCC3)c(=O)oc2ccccc12 | -2% | -18%
CNC(=O)/C(C#N)=C/c1c(N2CCN(c3ccc(OC)cc3)CC2)nc2c(C)cccn2c1=O | ? | -22%
CCOC(=O)c1cnc(-n2nc(C)cc2C)nc1Oc1ccccc1F | -2% | -14%
CCCOc1ccc(C(=O)NCCC(=O)NCCCC(=O)OCC)cc1 | -13% | -8%
O=C(Nc1ccc(F)c(Cl)c1)c1cc(S(=O)(=O)NCc2ccc3c(c2)OCO3)ccc1F | -12% | -14%
Cc1cc(C(=O)COC(=O)CCC(=O)c2ccc3c(c2)OCCO3)c(C)n1Cc1ccco1 | 17% | 19%
Cc1ccc2oc(=O)c3cnn(CC(=O)NC4CCCCC4C)c3c2c1 (stereo not given) | -5% | -4%
Cc1ccc(-c2ccc(CCC(=O)O)n2-c2ccc(C)c(Cl)c2)cc1 | -3% | 2%
CN1CCN(C(=O)/C(=C/c2ccccc2)c2ccccc2)CC1 | -1% | -11%
COc1ccc(OC)c(NC(=O)CCn2cnnn2)c1 | -3% | -7%
S=C(N/N=C/c1ccc(Br)cc1)N1CCCCC1 | ? | -1%
COc1ccc(NC(=O)CSc2ncnc3[nH]ncc23)cc1 | ? | -23%
c1csc(-c2noc(COc3ccc4c(c3)CCCC4)n2)c1 | -14% | -4%
Fc1ccc(N2CCN(Cc3cc4c(cc3Br)OCO4)CC2)cc1 | -2% | -12%
Cc1ncoc1C(=O)N1CCCC(CCC(=O)NCc2ccc(F)c(F)c2)C1 (stereo not given) | -22% | -3%
O=S(=O)(Nc1ccccc1)c1ccc2c(c1)CCO2 | i | -19%
Cc1ccc(CSc2nnc(-c3ccncc3)n2CC2CCCO2)cc1 (stereo not given) | -10% | -10%
Nc1cc(Cl)cc2c1-c1ccc(Cl)cc1C2O (stereo not given) | -20% | -11%
COc1ccc(CN2CCC(N3CCC(C(=O)N4CCOCC4)CC3)CC2)c(F)c1 | 0% | -1%
O=C(Nc1ccc(F)cc1F)c1ccc2nc(N3CCOCC3)sc2c1 | i | -7%
CCCN1CCN(CCCNC(=O)Cn2nc(-c3ccc(Cl)cc3)ccc2=O)CC1 | -28% | -14%
O=C(CSc1nc(O)cc(=O)[nH]1)C1CC1 | nt | -7%
c1ccc(Cn2nnc(CNc3ccccc3)c2-c2c(CNc3ccccc3)nnn2Cc2ccccc2)cc1 | ? | -24%
CN(C)c1ccc(/C=N/NC(=O)c2nnn(-c3nonc3N)c2COc2ccc(F)cc2)cc1 | -8% | -2%
CCCCc1ccc(NC(=S)N2CCCC(C)C2)cc1 (stereo not given) | -5% | -5%
CN1CCc2c(sc3c2C(=O)NC(/C=C/c2ccco2)N3)C1 (stereo not given) | -15% | -10%
CCCCn1c(=O)c(C(=O)Nc2ccccc2Cl)c(O)c2ccccc21 | -26% | -8%
CN(c1ccc(Cl)cc1)c1cc(=O)n(C)c2ccccc12 | -24% | -27%

# One compound at a time, from the list above. Screens in order: Vaccinia mCherry	VACV Venus inh
# O=C(CSc1nc(O)cc(=O)[nH]1)C1CC1 in the list: nt	-7%
# COc1ccc(NC(=O)CSc2ncnc3[nH]ncc23)cc1 in the list: ?	-23%
# CCCOc1ccc(C(=O)NCCC(=O)NCCCC(=O)OCC)cc1 in the list: -13%	-8%
# CCc1ccc(OCc2cc(=O)n3cc(C)sc3n2)cc1 in the list: -6%	-5%
# CC[C@@H]1Cc2cc(O)ccc2C2=C1c1ccc(O)cc1C[C@H]2CC in the list: -22%	?

# Carrying on:
canonical_smiles | Vaccinia mCherry | VACV Venus inh
O=C(Nc1ccc(N2CCN(C(=O)c3ccccc3)CC2)cc1)c1cc([N+](=O)[O-])ccc1N1CCOCC1 | i | -19%
CCc1ccc(N(CC)C(=O)c2sc3nc4n(c(=O)c3c2C)CCCC4)cc1 | -5% | -12%
O=c1[nH]cnc2c1ncn2C1OCC(O)C(O)C1O (stereo not given) | -3% | -5%
CCOC(=O)N1CCN(C(=O)/C=C/c2ccc3c(c2)OCO3)CC1 | -9% | 0%
COc1ccc(S(=O)(=O)NCC(c2ccc3c(c2)OCO3)N2CCN(C)CC2)cc1OC (stereo not given) | -4% | -9%
CC(C)(C)OC(=O)N/N=C/c1cn(-c2ccccc2)nc1-c1cccnc1 | i | -18%
Nc1nc2c(nc(Br)n2C2OC(CO)C(O)C2O)c(=O)[nH]1 (stereo not given) | i | -2%
CCc1noc(-c2ccc(N3CCC(C)CC3)c([N+](=O)[O-])c2)n1 | -4% | -1%

# Looked up by compound from above:
canonical_smiles | Vaccinia mCherry | VACV Venus inh
Cc1ccc2nc(-c3ccccc3O)c(Nc3ccc4c(c3)OCCO4)n2c1 | -10% | -17%
CN(C)c1ccc(/C=N/NC(=O)c2nnn(-c3nonc3N)c2COc2ccc(F)cc2)cc1 | -8% | -2%
CN1CCN(C(=O)/C(=C/c2ccccc2)c2ccccc2)CC1 | -1% | -11%

# Going on with the list.
canonical_smiles | Vaccinia mCherry | VACV Venus inh
CCc1nc(-c2cc(S(=O)(=O)N3CCN(c4ccc(OC)cc4)CC3)ccc2OC)no1 | i[7.34 µM] | -4%[7.34 µM]
O=C(CSc1nc2ccccc2o1)NCc1ccc2c(c1)OCO2 | ? | -12%
Cc1ccccc1Cn1c(=O)n(CCCCC(=O)NCc2ccc3c(c2)OCO3)c(=O)c2ccccc21 | ? | -20%
C/C(=N/NC(=O)c1ccco1)c1cccnc1 | i | -13%
COc1ccc(OCc2nc3ccccc3n2Cc2ccccc2Cl)cc1 | -8% | -17%
CCCCN(C)C(=O)CCC(=O)NNc1nc2ccccc2c2nc(C)nn12 | -4%&-13% | 1%&-7%
O=C(CNC(=O)C1CCCCC1)Nc1ccccc1Cl | i | -10%
Cc1ccn2cc(-c3cccc(NS(C)(=O)=O)c3)nc2c1 | -14% | -3%
CCCOc1ccc(C(=O)Nc2cc3c(cc2N2CCOCC2)n(C)c(=O)n3C)cc1 | -18% | -12%
COCc1c(Br)c(C)[nH]c(=O)c1C#N | nt | -11%
O=C(CSc1nnc(Cc2cccs2)n1-c1ccccc1)NC1CCCCC1 | i | -22%
CC1(C(=O)NS(=O)(=O)c2ccc(C#N)cc2)CCN1C(=O)CC1CC1 (stereo not given) | 3% | 6%
Cc1ccc(NC(=O)CSC(C)C(=O)OCc2cc(=O)oc3cc(O)ccc23)cc1 (stereo not given) | i | -11%
N/C(=N\OC(=O)c1ccc(Br)o1)c1cccnc1 | -3% | -9%
CCOC(=O)c1cnc2c(ccc3ccccc32)c1Nc1cccc(C(F)(F)F)c1 | -15% | -10%
CC(C)OCc1cc(CN2CCN(c3cccc(C(F)(F)F)c3)CC2)c(O)c2ncccc12 | 4µM* | -27%[7.34 µM]
COC(=O)c1ccc(N2C(c3cc(OC)cc(OC)c3)=Cc3ccc(OC)cc3C2CC(=O)c2ccco2)cc1 (stereo not given) | 19% | 0%
O=C(CCC(=O)N1CCN(S(=O)(=O)c2ccc3ccccc3c2)CC1)NCC(F)(F)F | -6% | -22%
O=C(CCNC(=O)c1ccc(Br)o1)NCc1ccccn1 | -15% | -12%
O=C(C[C@H]1C/C=C\C[C@H](Cc2ccc(F)cc2)C(=O)OCCNC1=O)NCCO | -11% | -1%
Cc1ccc2nc(SCC(=O)O)nc(C)c2c1 | -12% | -12%
CSc1oc(-c2ccco2)nc1S(=O)(=O)c1ccccc1 | i | -8%
COc1ccc2oc3cc(C)[n+]([O-])c(-c4ccc(Br)cc4)c3c2c1 | -27% | -16%
Cc1cc2cc(C)c(NCCNC(=O)c3cccc(F)c3)nc2cc1C | -8% | -22%
Cc1ncnc(N)c1CCCNc1ccccc1 | -20% | -13%
Cc1cc(C)c(NC(=O)CNC(=O)CSc2nnc(N)s2)c(C)c1 | -22% | -5%
COc1ccc(N/C=C\C(=O)c2ccc3c(c2)OCO3)cc1 | -9% | -25%
COc1ccc(/C(C)=N/Nc2nncc3ccccc23)cc1 | -6% | -2%
O=C(NC1CCCCC1)C1c2ccccc2OCC(=O)N1C1CC1 (stereo not given) | 5% | 9%
O=S(=O)(Cc1ccccc1)N1CCN(c2ncccn2)CC1 | -6% | -5%
CCN(CC(=O)Nc1ccc(NC(C)=O)cc1)C(=O)c1ccc(C(=O)c2ccccc2)cc1 | i | -16%
C#CCOCCOCCOCCNc1nc(N2CCN(C(=O)[C@H](CCCCN)n3cc(CCCC)nn3)CC2)nc(N2CCN(C(=O)[C@H](CCCCN)n3cc(CCC(=O)O)nn3)CC2)n1 | -4% | -4%
CCOC(=O)N1CCN(CC(O)COCc2cc(OC)c(OC)c(OC)c2)CC1 (stereo not given) | i | -18%
